MITF inh – inhibitors of MITF, primary screen, MITF inhibitor project, cell-based, luminescence | TRPM1 promoter luciferase, 24 h | inhibition, % (no concentration beside the values) | 37,000 tested, 0.28% active | AID 2240, 2010;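 active means most replicates at 85% or more, or half of them and the mean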;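 further: human melanocyte line stably carrying TRPM1 promoter luciferase reporter; 0% = vehicle wells and 100% = a positive control; the first replicate is given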
YB-1 expr inh – inhibitors of YB-1 gene expression, primary screen, cell-based, fluorescence; U2OS, qRT-PCR YB-1 vs CDIP delta delta Cp, 16 h; hits give high values; zero = DMSO, each unit about twofold; delta delta Cp (YB-1 minus CDIP) (no concentration beside the values); 30,000 tested, 0.37% active; AID 434959, 2010;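 active means delta delta Cp rounded down to an integer at or above 3, about 3 SD of DMSO wells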;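 further: higher means less YB-1 transcript or more CDIP transcript relative to DMSO; stock transfer was 100 nL into about 100 µL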
Shh pathway inh – Hedgehog pathway signaling inhibitors, primary screen, luminescence, Shh-LIGHT2 cells, Gli-luciferase. 22,000 tested, 2.1% active. Shh-LIGHT2 Gli-luciferase reporter, 30 h. inhibition, % (test concentration not listed);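 active means replicate mean of 65% or more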;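 further: pathway switched on by Shh-conditioned medium diluted 1 in 25 in low serum; 100 nL library stock added to about 40 µL; 0% = median of neutral wells and 100% = positive control level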
PD-1 reversal – activators reversing PD-1 mediated T-cell inhibition, primary screen, luminescence, primary human CD4 T cells, PD-L1 beads; CellTiter-Glo 96 h; activation, % (test concentration not listed); 29,000 tested, under 10 active; AID 2316, 2010;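 active means replicate mean of 50% or more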;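 further: 0% = median vehicle wells and 100% = positive control; 100 nL library stock added to about 50 µL; numbers are from one replicate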
Starred values were filed as active, the others as inactive; . = no result given. An excerpt (hit frequency here may not be typical).

Structure,MITF inh,YB-1 expr inh,Shh pathway inh,PD-1 reversal
CNC[C@H]1Oc2c(NC(=O)c3cc(C)nn3C)cccc2C(=O)N([C@@H](C)CO)C[C@@H]1C,3.0,-0.112,-75.7,.
NC(=O)COc1ccc(NC(=O)c2cncc(Br)c2)cc1,-91.1,.,.,0.0
O=C(CSc1nnc2ccc3ccccc3n12)Nc1ccc2c(c1)OCCO2,-27.6,.,.,0.4
CCn1c(SCC(=O)Nc2ccc(OC)c(Cl)c2)nnc1-c1ccccc1O,-13.4,.,.,-1.0
C[C@@H]1CCCCO[C@@H](CN(C)S(=O)(=O)c2ccccc2)[C@@H](C)CN([C@H](C)CO)C(=O)c2cc(NC(=O)Nc3cccc4ccccc34)ccc2O1,15.8,0.123,-19.0,-0.3
CC(C(=O)Nc1ccccc1Cl)N(c1ccccc1)S(C)(=O)=O (stereo not drawn),10.4,.,.,1.0
O=C(Nc1cccc([N+](=O)[O-])c1)Nc1nn(Cc2c(F)cccc2Cl)cc1Br,-7.4,.,.,0.3
C[C@@H]1CN([C@H](C)CO)C(=O)c2cc(NC(=O)Nc3ccc(C(F)(F)F)cc3)ccc2O[C@@H]1CN(C)Cc1ccccc1,-5.0,-0.375,.,-0.8
C[C@H](CO)N1C[C@H](C)[C@H](CN(C)C(=O)NC2CCCCC2)Oc2ccc(NS(=O)(=O)c3ccc(F)cc3)cc2C1=O,-9.7,0.231,.,-1.7
C[C@H](CO)N1C[C@H](C)[C@H](CN(C)CC2CCCCC2)Oc2ccc(NS(=O)(=O)c3ccccc3)cc2C1=O,-3.6,0.0661,-12.8,-1.0
Cc1cc(C(=O)Nc2cccc3c2O[C@H](CN(C)C(=O)Nc2cccc4ccccc24)[C@@H](C)CN([C@@H](C)CO)C3=O)n(C)n1,8.0,-0.0657,7.8,-0.8
CC(C)NC(=O)Nc1cccc2c1O[C@H](CN(C)Cc1ccc(-c3ccccc3)cc1)[C@@H](C)CN([C@@H](C)CO)C2=O,35.0,0.625,15.4,.
CNC[C@@H]1Oc2ccc(NC(=O)Nc3c(C)noc3C)cc2C(=O)N([C@H](C)CO)C[C@@H]1C,-13.3,-0.0226,.,1.3
CNC[C@H]1Oc2c(NS(=O)(=O)c3cn(C)cn3)cccc2C(=O)N([C@@H](C)CO)C[C@H]1C,-7.9,-0.14,12.2,0.3
Cc1noc(C)c1NC(=O)Nc1cccc2c1O[C@H](CN(C)Cc1ccc(C(=O)Nc3ccccc3N)cc1)[C@@H](C)CN([C@@H](C)CO)C2=O,-6.8,0.371,.,0.9
C[C@@H]1CN([C@@H](C)CO)C(=O)c2cc(NC(=O)Nc3ccccc3)ccc2O[C@H]1CN(C)S(=O)(=O)c1cn(C)cn1,-8.5,0.884,-41.4,2.7
Cc1ccc(S(=O)(=O)Nc2ccc3c(c2)CC(=O)N([C@H](C)CO)C[C@H](C)[C@H](CN(C)S(=O)(=O)c2ccccc2)O3)cc1,12.0,0.379,5.3,.
C[C@@H]1CN([C@H](C)CO)C(=O)c2cc(NS(C)(=O)=O)ccc2O[C@H]1CN(C)Cc1ccc(C(=O)Nc2ccccc2N)cc1,-8.7,-0.534,.,-0.9
Cc1noc(C)c1NC(=O)N(C)C[C@H]1Oc2ccc(NC(=O)CCCCCC(=O)Nc3ccccc3N)cc2CC(=O)N([C@@H](C)CO)C[C@H]1C,-24.3,0.0538,.,-0.3
C[C@@H]1CN([C@H](C)CO)C(=O)c2cccc(NC(=O)CCCCCC(=O)Nc3ccccc3N)c2O[C@H]1CN(C)Cc1ccc(-c2ccccc2)cc1,52.0,-0.351,.,0.1
C[C@@H]1CN([C@@H](C)CO)C(=O)Cc2cc(NC(=O)Cc3cn(C)c4ccccc34)ccc2O[C@@H]1CN(C)C(=O)Nc1ccc(F)cc1,3.7,-0.136,-4.7,-1.6
COc1cc(NC(=O)CN(C)S(=O)(=O)c2ccc(C)cc2)c(OC)cc1Cl,18.3,.,.,-0.5
Cc1noc(C)c1S(=O)(=O)Nc1ccc2c(c1)C(=O)N([C@H](C)CO)C[C@H](C)[C@H](CN(C)C(=O)Nc1cccc3ccccc13)OCCCC[C@@H](C)O2,19.8,-0.429,-8.7,.
COc1ccc(CN(C)C[C@@H]2Oc3ccc(NC(=O)Nc4ccc(F)cc4)cc3CC(=O)N([C@H](C)CO)C[C@H]2C)cc1,-20.4,0.0856,-13.5,.
C[C@H](CO)N1C[C@H](C)[C@H](CN(C)Cc2ccncc2)Oc2ccc(NC(=O)NC3CCCCC3)cc2CC1=O,-6.8,-0.438,-48.4,-2.8

The final 2 compounds of the section before open the next one.
Structure,MITF inh,YB-1 expr inh,Shh pathway inh,PD-1 reversal
COc1ccc(CN(C)C[C@@H]2Oc3ccc(NC(=O)Nc4ccc(F)cc4)cc3CC(=O)N([C@H](C)CO)C[C@H]2C)cc1,-20.4,0.0856,-13.5,.
C[C@H](CO)N1C[C@H](C)[C@H](CN(C)Cc2ccncc2)Oc2ccc(NC(=O)NC3CCCCC3)cc2CC1=O,-6.8,-0.438,-48.4,-2.8
CCC(Oc1ccccc1)C(=O)Nc1cccc(NC(C)=O)c1 (stereo not drawn),-3.8,.,.,4.0
COc1cccc(OCC(=O)Nc2ccc(-c3nc4ccccc4o3)cc2)c1,-14.5,.,.,1.5
C[C@H]1CN([C@@H](C)CO)C(=O)Cc2cc(N(C)C)ccc2O[C@@H]1CN(C)Cc1ccc(C(=O)O)cc1,-3.7,3.43e-05,-20.2,2.0
CC(Oc1ccc(C(=O)Nc2ccc(Cl)cc2)cc1)C(=O)Nc1ccc(Br)cc1 (stereo not drawn),66.1,.,.,-13.3
COc1ccc(S(=O)(=O)Nc2ccc3c(c2)CC(=O)N([C@@H](C)CO)C[C@H](C)[C@@H](CN(C)C(=O)NC(C)C)O3)cc1,-5.6,-0.0994,.,.
C[C@@H]1CN([C@@H](C)CO)C(=O)c2cccc(NC(=O)C3CC3)c2O[C@H]1CN(C)S(=O)(=O)c1cn(C)cn1,3.6,0.143,-14.2,2.0
Cn1c(=O)c2c(nc(SCC(=O)Nc3ccc(N4CCOCC4)c(Cl)c3)n2C)n(C)c1=O,4.9,.,.,0.2
C[C@@H]1CN([C@H](C)CO)C(=O)c2cccc(NC(=O)C3CC3)c2O[C@H]1CN(C)Cc1ccccc1,28.2,-0.15,9.1,-3.3
C[C@H]1CN([C@@H](C)CO)C(=O)Cc2cc(NS(C)(=O)=O)ccc2O[C@@H]1CN(C)S(=O)(=O)c1cccs1,-13.8,-0.0856,-33.9,0.1
COc1ccc(S(=O)(=O)N(C)C[C@@H]2Oc3c(NC(=O)Nc4ccc(F)cc4)cccc3C(=O)N([C@@H](C)CO)C[C@@H]2C)cc1,7.1,-0.0322,85.6*,-1.2
C[C@H]1CN([C@@H](C)CO)C(=O)c2cc(NC(=O)Nc3ccc(F)cc3)ccc2O[C@H]1CN(C)Cc1ccc(C(F)(F)F)cc1,29.8,0.283,14.2,-2.9
Cc1noc(C)c1S(=O)(=O)N(C)C[C@H]1Oc2c(cccc2N(C)C)C(=O)N([C@@H](C)CO)C[C@H]1C,8.6,0.191,0.1,.
C[C@@H]1CN([C@@H](C)CO)C(=O)Cc2cc(N(C)C)ccc2O[C@@H]1CN(C)Cc1ccc(-c2ccccc2)cc1,7.5,0.423,-20.5,0.1
C[C@@H]1CN([C@H](C)CO)C(=O)Cc2cc(NC(=O)Nc3ccc(C(F)(F)F)cc3)ccc2O[C@@H]1CN(C)C(=O)Nc1ccccc1,6.5,-0.114,-11.2,-0.2
Cc1ccc(S(=O)(=O)Nc2ccc3c(c2)C(=O)N([C@H](C)CO)C[C@H](C)[C@H](CN(C)CC2CCCCC2)O3)cc1,-6.3,-0.0867,-2.0,1.8
C[C@@H]1CN([C@@H](C)CO)C(=O)c2cccc(NC(=O)CCCCCC(=O)Nc3ccccc3N)c2O[C@@H]1CN(C)S(C)(=O)=O,-8.2,-0.722,.,1.2
Cc1ccc2nc(-c3ccc(NC(=O)CN4CCN(C(=O)C5CCCO5)CC4)cc3)sc2c1 (stereo not drawn),7.0,.,.,-1.1
O=C(c1ccccc1)N1N=C(c2ccccc2)CC1c1ccc2nccnc2c1 (stereo not drawn),-11.2,-0.196,24.5,-0.5
Cc1noc(C)c1NC(=O)N(C)C[C@@H]1Oc2ccc(NC(=O)Cc3ccccc3)cc2CC(=O)N([C@@H](C)CO)C[C@@H]1C,-12.6,-0.487,-13.3,.
C[C@H]1CN([C@@H](C)CO)C(=O)c2cccc(NS(=O)(=O)c3ccc(F)cc3)c2O[C@@H]1CN(C)C(=O)NC1CCCCC1,-8.2,-0.0351,-9.0,0.8
Cc1ccc(S(=O)(=O)NCC(=O)Nc2ccc(C(F)(F)F)cc2)cc1,4.1,.,.,3.6
C[C@H]1CN([C@@H](C)CO)C(=O)c2cc(NC(=O)Nc3ccc(C(F)(F)F)cc3)ccc2O[C@H]1CN(C)S(=O)(=O)c1ccc(Cl)cc1,3.8,-0.151,.,1.0
Cc1cc(C(=O)Nc2cccc3c2O[C@H](CN(C)S(=O)(=O)c2ccccc2)[C@H](C)CN([C@H](C)CO)C3=O)n(C)n1,1.8,0.348,-22.4,2.3
COc1ccc(NC(=O)Nc2ccc3c(c2)C(=O)N([C@@H](C)CO)C[C@@H](C)[C@H](CN(C)S(=O)(=O)c2ccc(C)cc2)O3)cc1,-17.5,-0.313,-58.0,-0.9
CCOC(=O)c1c(NC(=O)Cn2c(=O)oc3ccccc32)sc(C(C)=O)c1C,-9.5,.,.,-1.3
C[C@@H]1CN([C@@H](C)CO)C(=O)c2cccc(NC(=O)c3nc4ccccc4s3)c2O[C@@H]1CN(C)C(=O)Nc1ccccc1,7.0,-0.156,47.7,-2.1
C[C@H](CO)N1C[C@H](C)[C@H](CN(C)Cc2ccc(C(=O)Nc3ccccc3N)cc2)Oc2c(NC(=O)Nc3ccc(F)cc3)cccc2C1=O,4.1,-0.0281,.,0.1
C[C@@H]1CN([C@@H](C)CO)C(=O)c2cc(NC(=O)Nc3ccc4c(c3)OCO4)ccc2O[C@H]1CN(C)S(=O)(=O)c1cccs1,-38.1,-7.44e-05,.,-1.0
C=CC1=C(C(=O)O)N2C(=O)[C@@H](NC(=O)/C(=N\OCC(=O)O)c3csc(N)n3)[C@H]2SC1,2.5,0.157,41.0,.
COc1ccc(C(=O)CSc2nnc(-c3ccccc3Cl)n2-c2ccccc2)cc1,11.7,.,.,2.0
N#CC(C#N)=C(Nc1ccccc1Cl)SCc1cccc(F)c1,89.5*,0.184,111.9*,-1.4
C[C@@H]1CCCCO[C@H](CN(C)C(=O)Nc2ccc(C(F)(F)F)cc2)[C@@H](C)CN([C@H](C)CO)C(=O)c2cc(NC(=O)Nc3cccc4ccccc34)ccc2O1,-3.0,0.394,.,.
C[C@@H]1CN([C@H](C)CO)C(=O)Cc2cc(NC(=O)Cn3cnnn3)ccc2O[C@@H]1CN(C)C(=O)NC1CCCCC1,5.0,-0.422,-2.9,.
CC(C)S(=O)(=O)c1csc(C(=O)NN)c1Cl,6.8,0.446,-6.3,2.6
Cc1ccc(SCC(=O)Nc2ccccc2C(=O)N2CCOCC2)cc1,7.5,.,.,0.1
C[C@@H]1CN([C@H](C)CO)C(=O)c2cc(N(C)C)ccc2O[C@@H]1CN(C)C(=O)Nc1cccc2ccccc12,3.5,-0.502,20.4,-0.6
C[C@H]1CN([C@@H](C)CO)C(=O)c2cccc(NC(=O)Nc3ccccc3)c2O[C@H]1CN(C)C(=O)Nc1ccc(F)cc1,6.6,0.642,-72.6,0.1

Not a retest: an excerpt of the list.
Structure,MITF inh,YB-1 expr inh,Shh pathway inh,PD-1 reversal
C[C@@H]1CCCCO[C@H](CN(C)C(=O)Nc2ccc(C(F)(F)F)cc2)[C@@H](C)CN([C@H](C)CO)C(=O)c2cc(NC(=O)Nc3cccc4ccccc34)ccc2O1,-3.0,0.394,.,.
C[C@@H]1CN([C@H](C)CO)C(=O)Cc2cc(NC(=O)Cn3cnnn3)ccc2O[C@@H]1CN(C)C(=O)NC1CCCCC1,5.0,-0.422,-2.9,.
CC(C)S(=O)(=O)c1csc(C(=O)NN)c1Cl,6.8,0.446,-6.3,2.6

Screening results as filed in PubChem.
